HNF4A DNA FP – change in binding of human HNF4 alpha to DNA | P41235 | HNF4a-FITC DNA binding, fluorescence polarization, 1 h | activity change, % at 10 µM | 360,000 tested, 0.3% active; in the data active = activity change above about 30%, passing the limit was not always enough;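 note: controls were the assay level and a saturating level of protein; the project sought stronger binding though the title names inhibitors; some compounds called inactive have numbers as strong as hits; positive values seem to mean higher polarization but the record does not say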
Target sequence (P41235 whole entry, looked up): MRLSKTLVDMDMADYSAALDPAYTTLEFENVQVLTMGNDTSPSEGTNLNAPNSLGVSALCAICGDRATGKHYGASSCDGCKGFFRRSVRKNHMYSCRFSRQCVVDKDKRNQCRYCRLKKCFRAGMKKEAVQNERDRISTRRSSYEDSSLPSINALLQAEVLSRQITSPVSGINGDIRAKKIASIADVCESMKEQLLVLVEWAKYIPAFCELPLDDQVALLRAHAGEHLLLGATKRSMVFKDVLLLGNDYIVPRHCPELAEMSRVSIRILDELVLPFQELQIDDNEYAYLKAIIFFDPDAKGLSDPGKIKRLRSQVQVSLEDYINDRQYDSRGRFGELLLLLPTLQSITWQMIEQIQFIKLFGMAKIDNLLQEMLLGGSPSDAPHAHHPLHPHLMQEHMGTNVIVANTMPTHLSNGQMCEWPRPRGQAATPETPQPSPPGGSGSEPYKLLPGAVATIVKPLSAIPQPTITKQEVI
E coli growth – blocks Escherichia coli growth | OD600, 23 h; hits give low values | OD600 absorbance (concentration not given with the values) | 330,000 tested, 0.21% active;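 active = OD600 absorbance below the run mean of sample wells minus 3.6 SD, in any replicate, cut at about 0.56 in these data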;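 note: stock transfer was 300 nL into about 60 µL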
LANA-H2B inh – blocks KSHV LANA binding to histone H2A/H2B; Q9QR71; cell-free LANA-H2A/H2B peptide, fluorescence polarization; inhibition, % (no concentration beside the values); 320,000 tested, 0.6% active; AID 2629; in the data active = inhibition mostly above about 10%, no sharp cut-off; inactive = mostly below about 6.7%;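 note: stock transfer was 7.5 nL into about 10 µL; 0% = median of vehicle wells and 100% = median of positive control wells; one replicate is shown; the record names a cut of 25% in any replicate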
Vif A3G – HIV-1 Vif–A3G interaction blockers – biochemical, TR-FRET, GST-Vif 1-94, biotin-A3G peptide, dose response retest, primary screen (AID 1117319); inhibition, %; hits with a dose series show IC50 in µM; TR-FRET GST-Vif / biotin-A3G peptide binding; higher % means a stronger effect; test concentration not given here; strong numbers were not always called active; 260,000 tested, 0.57% active;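 active = above the screen mean plus three standard deviations and confirmed in dose response; inconclusive = results disagree or hit not tested in dose response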;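 note: Vif residues 1-94 fused to GST binding biotinylated APOBEC3G peptide 110-148; 0% = full assay without inhibitor and 100% = GST in place of GST-Vif; retest series ran down from 100 µM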
Beta2AR agonist – human beta-2 adrenergic receptor agonism by FAP | response, % (no concentration beside the values) | Am2.2-beta2AR cells, FAP receptor internalization, flow cytometry; reference of the scale not given here | 340,000 tested, 0.43% active | P07550;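 active = response above a set limit, near 3 SD of response in nonfluorescent compounds, cut at about 42% in these data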;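 note: stock transfer was 100 nL into about 11 µL; a reference agonist was the positive control; negative values mostly stem from fluorescent compounds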
Target sequence (P07550 whole entry, looked up): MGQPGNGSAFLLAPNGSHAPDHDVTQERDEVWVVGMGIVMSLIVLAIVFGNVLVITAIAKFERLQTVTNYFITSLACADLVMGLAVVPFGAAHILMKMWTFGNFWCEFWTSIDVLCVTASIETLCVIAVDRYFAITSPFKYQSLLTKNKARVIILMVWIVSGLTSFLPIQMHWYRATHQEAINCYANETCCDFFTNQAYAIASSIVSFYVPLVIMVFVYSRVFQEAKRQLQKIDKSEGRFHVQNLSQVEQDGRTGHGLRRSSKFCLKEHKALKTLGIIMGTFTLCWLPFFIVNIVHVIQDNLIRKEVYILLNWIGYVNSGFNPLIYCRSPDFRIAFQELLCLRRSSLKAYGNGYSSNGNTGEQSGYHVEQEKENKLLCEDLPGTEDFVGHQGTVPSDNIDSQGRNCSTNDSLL
UCH37 inh – inhibitors of human deubiquitinating enzyme UCH37; inhibition, % (test concentration not listed); AID 588478; 330,000 tested, 0.33% active; purified proteasome/UCH37, Ub-AMC cleavage fluorescence;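 active = mean of two replicates above 20%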;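 note: 0% = compound-free wells with enzyme and 100% = wells lacking proteasome; stock transfer was 100 nL into about 20 µL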
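System: Proteasome-associated human UCH37 deubiquitinase; Input: 0.15 nM proteasome in added enzyme buffer; Also added: Ub-AMC substrate from 1 µM stock; Incubation: 30 min compound-proteasome preincubation then 25 min substrate reaction, room temperature; Detection: fluorescence, ex 355 nm, em 460 nm; Read-out: % inhibition of Ub-AMC cleavage fluorescence; Benchmarks: no-proteasome and no-compound wells.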
Bfl-1 A1 inh – inhibitors of the anti-apoptotic protein A1, read as caspase activation; caspase activation, % (concentration not given with the values); MEF A1-2A-BIM cells, Caspase-Glo 3/7 luminescence, 3 h; percent of clofoctol response, vehicle zero; AID 2462; 330,000 tested, 0.066% active;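 active = over half of replicate activation scores above 10%, or exactly half above 10 with the replicate mean above 10; inconclusive = replicate mean below 10 yet half the replicates above 10; inactive = over half of replicates below 10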;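 note: wells of about 30 µL received 50 nL stock; many hits fall short of the cut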
Starred values were filed as active, the others as inactive; i = inactive; ? = inconclusive; nt = not tested or not shown; & = joins results of further samples.

mol,HNF4A DNA FP,E coli growth,LANA-H2B inh,Vif A3G,Beta2AR agonist,UCH37 inh,Bfl-1 A1 inh
Cc1ccc(C)c(S(=O)(=O)N2CCCCC2CCNC(=O)C(=O)NCc2ccco2)c1 (stereo not given),-2.0,0.713,-0.1,-7.5%,-11.9,1.3,-0.1
COC(=O)C1C(c2ccccc2)C(C(=O)OCc2ccco2)C1c1ccccc1 (stereo not given),2.7,0.685,3.6,-5.0%,31.3,2.6,-0.1
O=C(SCC(O)C(O)CS)c1cccs1 (stereo not given),-1.5,0.695,3.9,nt,-2.1,1.0,0.4
COc1cccc(NC(=O)CCc2nnc3ccc(NCc4ccco4)nn23)c1,-6.1,0.664,-4.5,nt,21.8,1.6,0.2
O=[N+]([O-])c1ccc(/C=N/Nc2ccccn2)cc1,15.6,nt,0.2,0.5%,4.2,nt,1.1
NC(=O)CSc1nc(C2CC2)nc2sc3c(c12)CCCC3,-3.8,0.72,-3.2,nt,8.7,-0.4,-6.8
COc1ccc(C2CC(c3ccccc3)=NN2c2ccc(/C=N/NC(=O)c3ccncc3)cc2)cc1 (stereo not given),1.5,nt,1.1,9.5%,13.2,nt,1.4
O=C(COC(=O)c1ccc(NS(=O)(=O)c2ccc(F)c(F)c2)cc1)NCC1CCCO1 (stereo not given),-1.5,0.651,0.0,-5.2%,9.9,-1.3,-1.0
O=c1oc2ccccc2cc1-c1ccccc1,3.0,0.635,2.3,6.7%,1.9,-12.2,-3.1
Cc1cccc(C)c1NCc1nnc(SCC(=O)Nc2nc(-c3ccccc3)cs2)n1-c1ccccc1,-1.5,0.787,0.5,4.5%,1.8,8.5,0.5
COc1cc(CN2CCN(CCc3ccccc3)C(CCO)C2)cc(OC)c1 (stereo not given),2.5,0.713,-4.8,29.4%,6.1,1.7,-0.2
CCOc1ccc(S(=O)(=O)N(CC)CC(=O)N2CCCC2)cc1,-0.8,0.695,-1.0,nt,-0.9,2.9,0.6
CC(OC(=O)c1snc(C(=O)NC2CCCCC2)c1N)C(=O)NC1CCCCC1 (stereo not given),-0.5,0.663,3.0,31.3%,-4.1,-79.2,1.0
Cc1ccccc1N=C1NC(=O)C(CO)(CO)S1,-1.9,0.713,-1.3,nt,3.8,0.6,3.3
CC(C)(C)n1nnnc1C(c1ccc(C(F)(F)F)cc1)N(Cc1ccccc1)Cc1ccco1 (stereo not given),-0.1,0.727,-4.9,-0.5%,5.2,-3.2,0.0
CC1CN(C(=O)CCNC(=O)c2ccccc2Cl)CC(C)O1 (stereo not given),2.6,0.677,0.4,-0.5%,2.8,1.2,-0.8
CCCNC(=O)C(NS(=O)(=O)c1ccc2c(c1)c(=O)n(C)c(=O)n2C)c1ccccc1 (stereo not given),-0.7,0.723,-2.6,-2.8%,14.4,5.2,0.6
CC(C)CNC(=O)COC(=O)CCC(=O)c1ccc(F)cc1,-1.0,0.69,0.4,?,-4.5,3.1,0.4
Cc1nc(N(C)C)c2sc(=S)n(Cc3ccccc3)c2n1,3.3,0.741,i,3.5%,-1.9,6.0,0.9
CN(CC(=O)Nc1ccc(Cl)cc1)C(=O)c1sccc1-c1ccccc1,0.0,0.703,-0.9,-6.4%,12.5,-0.3,0.4
CCc1nnc(NC(=O)Cn2nnc(-c3ccccc3F)n2)s1,-3.8,0.701,-0.8,1.5%,-10.3,0.4,-0.2
Cc1cc(C)cc(NC(=O)C/C(N)=N/O)c1,2.0,0.646,3.3,-1.4%,2.0,0.1,-0.1
CN(C(=O)C=Cc1ccccc1)c1ccccc1,1.0,0.651,nt,-1.0%,-7.0,1.0,nt
CCOC(=O)c1nnn(CC(=O)N2N=C(c3cccc4ccccc34)CC2c2ccccc2)c1C(=O)OCC (stereo not given),-3.0,0.763,-0.9,-9.6%,15.1,-269.7,0.1
O=[N+]([O-])c1ccc(S(=O)(=O)c2ccccc2)nc1,-1.8,nt,-1.1,nt,30.4,nt,-1.7

Entries of single compounds as entered above. Order of values: HNF4A DNA FP | E coli growth | LANA-H2B inh | Vif A3G | Beta2AR agonist | UCH37 inh | Bfl-1 A1 inh
Cc1nc(N(C)C)c2sc(=S)n(Cc3ccccc3)c2n1 is listed as 3.3 | 0.741 | i | 3.5% | -1.9 | 6.0 | 0.9
CN(CC(=O)Nc1ccc(Cl)cc1)C(=O)c1sccc1-c1ccccc1 is listed as 0.0 | 0.703 | -0.9 | -6.4% | 12.5 | -0.3 | 0.4

Remaining list, next part.
mol,HNF4A DNA FP,E coli growth,LANA-H2B inh,Vif A3G,Beta2AR agonist,UCH37 inh,Bfl-1 A1 inh
CC(C)c1ccccc1OCC(=O)NC1CCCc2ccccc21 (stereo not given),-1.2,0.632,-8.8,nt,1.9,0.7,0.0
C/C(=C\C(=O)c1ccc(Br)cc1)NNC(=O)c1ccc(O)cc1,-3.5,0.678,-0.6,-0.4%,0.1,1.0,0.3
Cn1nc(C(C)(C)C)c([N+](=O)[O-])c1C(=O)N1CCCCCC1,-1.4,0.725,-0.6,nt,1.1,-0.7,-0.7
CCc1cc[n+](CC(=O)Nc2ccc(Cl)cc2Cl)cc1,-1.9,0.662,2.5,1.6%,-2.6,0.6,0.8
N#Cc1c(-c2ccccc2)ccn(Cc2cccc(Cl)c2)c1=O,2.1,0.686,-3.2,3.1%,7.2,-7.6,0.6
CC(=O)C1=C(O)C(=O)N(CCC(=O)O)C1c1cccc(F)c1 (stereo not given),0.3,0.653,-2.2,4.0%,-2.3,3.6,0.0
CCOC(=O)N1CCN(C(=O)c2cn(CC)c3ccc(S(=O)(=O)N(C)C4CCCCC4)cc3c2=O)CC1,-2.5,0.682,13.3,nt,-9.4,4.8,-0.3
COc1ccc(NC(=O)COc2nsnc2N2CCOCC2)c(OC)c1,4.2,0.678,-1.8,nt,-9.0,1.1,-0.2
O=C(NCC1COc2ccccc2O1)c1ccc(Cl)c(S(=O)(=O)N2CCCC2)c1 (stereo not given),1.3,0.646,1.2,1.9%,-13.8,2.0,1.1
CCOc1cccc(CN2CCN(CCCc3ccccc3)C(CCO)C2)c1O (stereo not given),0.5,0.667,-0.8,nt,5.0,2.6,-0.1
CC(C)c1ccc(N(C(=O)c2cc3ccccc3oc2=O)C2C=CS(=O)(=O)C2)cc1 (stereo not given),-1.6,0.67,-6.4,nt,-5.8,4.3,-0.9
COC(=O)C1=C(O)/C(=C\c2cc(C)n(-c3ccccc3F)c2C)N=C1C,2.5,0.706,1.9,25.1%,-0.2,6.4,0.8
O=C(COc1ncnc2ccccc12)NC1CCCC1,-2.5,0.642,1.0,nt,-6.1,2.1,-0.1
Cc1cc(=O)n2nc(N3CCCC(C(=O)N4CCc5ccccc54)C3)sc2n1 (stereo not given),3.9,0.74,9.5,-1.5%,-9.3,-0.2,0.3
N/C(=N\OC(=O)c1cccc2ccccc12)c1ccccn1,0.5,nt,40.5*,6.3%,-15.5,nt,-5.7
C=CCn1c(SCC(=O)Nc2ccccc2C)nnc1-c1ccncc1,-2.5,0.702,-1.1,2.1%,6.9,5.3,0.2
O=C(O)CCC(=O)Nc1ccc(C(=O)OC2CCCCC2)cc1,-1.1,0.615,1.9,9.1%,3.2,0.7,-1.4
CCN(CC)c1nc2ccccc2c(N)c1-c1ccccc1,-1.3,0.693,0.7,1.3%,1.6,9.9,0.2
CN(C)CCCN1C(=O)c2oc3ccccc3c(=O)c2C1c1cccs1 (stereo not given),-1.0,0.663,-0.3,2.1%&2.2%,17.6,-2.5,0.5
CCC(CC)C(=O)Nc1c2c(nn1-c1ccc(OC)cc1)CS(=O)(=O)C2,-2.5,0.693,0.1,-3.1%,-1.0,4.8,0.7
Cc1cc(C)[n+](-c2ccc(Oc3ccccc3)c(S(=O)(=O)[O-])c2)[nH]1,-4.1,0.646,-4.9,?,-4.0,6.3,-0.5
O=C(CCc1ccccc1)Nc1nnc(-c2ccc3c(c2)CCCC3)o1,0.4,nt,2.1,0.5%,5.4,nt,0.2
CC(=O)N(CCOc1ccccc1)CCOc1ccccc1,2.1,0.677,1.9,nt,-2.9,1.9,0.0
NC(=O)CC(NC(=O)Cc1cccc2ccccc12)c1ccc(NCc2ccccc2)c([N+](=O)[O-])c1 (stereo not given),15.5,nt,-2.6,nt,-2.0,nt,0.0
CC(NCc1ccccc1Cl)C(=O)Nc1ccc(C#N)cc1 (stereo not given),3.6,0.715,3.5,18.6%,2.8,0.3,0.6
CCCCN(CCCC)c1ccc(C(=O)c2ccccc2C(=O)O)c(O)c1,1.1,0.69,9.6,-2.1%,12.0,13.5,-0.3
CCC1CCc2sc(C(=O)N(C)CC(=O)Nc3ccc(N4CCOCC4)cc3)cc2C1 (stereo not given),2.5,0.712,-2.6,-6.5%,-3.3,-2.5,0.2
COc1ccc(CC(=O)NCc2n[nH]c(=S)n2-c2cccc(Cl)c2)cc1,2.7,0.638,-2.5,1.6%,11.5,0.3,0.5
CC(C)(C)OC(=O)N[C@@H](Cc1ccccc1)c1nnc(SCC(N)=O)o1,0.9,0.63,-0.5,-5.3%,-3.9,-5.6,0.5
O=C(Nc1cccnc1Cl)c1cc2ccccc2o1,-1.1,0.661,-1.8,-4.1%,-11.9,5.8,-7.7
c1ccc(CSC2=NCCCN2)cc1,4.3,0.697,2.3,12.8%,-1.9,4.9,-0.2
O=C(O)c1cc2c(ccc3ccccc32)o1,4.2,0.672,1.7,?,-0.1,-15.9,-0.6
COc1ccc(NC(=O)CSc2nc3ccsc3c(=O)n2Cc2ccccn2)c(OC)c1,-4.4,0.705,1.7,-7.3%,-13.0,6.1,-0.2
COc1ccccc1N1CCN(C(=O)c2cc(-c3cccs3)on2)CC1,0.7,0.651,-2.2,>100µM*,4.7,1.8,-0.1
CCN(CC(=O)N1CCOCC1)S(=O)(=O)c1ccc(C)cc1,0.2,0.68,-0.9,-3.7%,-2.0,1.8,0.3
Cc1nn(CC(=O)NCCc2ccccc2)c(C)c1[N+](=O)[O-],2.7,0.7,nt,1.5%,1.6,4.8,-1.1
CCc1nnc(NS(=O)(=O)c2ccc(NCc3ccccc3O)cc2)s1,1.6,0.683,-1.7,7.0%,-1.3,3.7,-0.1
O=S(=O)(Nc1ccncc1Cl)c1cc(Cl)ccc1Cl,2.4,0.697,-3.8,nt,-21.9,1.6,-0.1
Cc1csc(NC(=O)[C@@H](NC(=O)c2ccccc2)C(C)C)n1,-0.2,0.693,-2.1,nt,2.6,6.0,-0.1
CCCc1cc(=O)oc2c(C)c(OCC(=O)Nc3ccccn3)ccc12,3.1,0.698,0.8,nt,1.2,-9.7,-9.2
COc1ccc(NC(=O)COc2ccc(N(C)S(=O)(=O)c3ccc(C)cc3)cc2)cc1,2.1,0.728,-9.8,0.0%,5.0,4.6,1.0
CC1(C)C(=O)NC(=O)N1Cc1ccccc1,-0.6,0.682,8.8,nt,3.3,0.6,-0.4
CCn1c(-c2nonc2NC(=O)c2ccccc2)nc2ccccc21,-2.8,0.636,nt,-6.1%,1.6,-1.0,nt
COc1ccc(NC(=O)CNC(=O)Cn2c(C)cc3ccccc3c2=O)c(OC)c1,-2.5,0.697,-6.7,nt,-2.4,-9.6,0.5
CCCC(=O)NC(c1ccc2c(c1)OCO2)c1cc(Cl)c2cccnc2c1O (stereo not given),-1.4,0.679,1.4,5.1%,13.0,1.8,-0.7
CCn1c(NN)nc2sc3c(c2c1=O)CCC3,1.4,nt,0.2,?,2.5,0.6,0.3
CCC[N+]1(CC#CC2(O)CCCCC2)CCOCC1,-0.1,0.697,-4.2,7.5%,6.6,-0.1,-0.3
